Assay outcomes deposited in PubChem BioAssay by National Center for Advancing Translational Sciences (NCATS).
Cruzain inh noDet: qHTS Assay for Promiscuous and Specific Inhibitors of Cruzain (without detergent) | Cruzipain (Trypanosoma cruzi), P25779 | purified cruzain, Z-FR-AMC fluorescence, no detergent | Potency, µM, inactives show max response, negative = inhibition, actives largely listed as inhibitors | actives 2.3% (n = 200,000) | AID 1476, 2009; active = well fitted curve in the direction sought with a large enough effect; inconclusive = small, poorly fitted or top-dose-only effect, or another doubt; inactive = no such curve, though single readings can be large; an effect the other way counts as inactive or inconclusive;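 note: plate controls were enzyme without inhibitor for no effect and buffer without enzyme for full effect; nearly all actives have a fitted effect of over 40% in size; top concentration of the series not given in the record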
Target sequence (P25779 123-467 limits assumed): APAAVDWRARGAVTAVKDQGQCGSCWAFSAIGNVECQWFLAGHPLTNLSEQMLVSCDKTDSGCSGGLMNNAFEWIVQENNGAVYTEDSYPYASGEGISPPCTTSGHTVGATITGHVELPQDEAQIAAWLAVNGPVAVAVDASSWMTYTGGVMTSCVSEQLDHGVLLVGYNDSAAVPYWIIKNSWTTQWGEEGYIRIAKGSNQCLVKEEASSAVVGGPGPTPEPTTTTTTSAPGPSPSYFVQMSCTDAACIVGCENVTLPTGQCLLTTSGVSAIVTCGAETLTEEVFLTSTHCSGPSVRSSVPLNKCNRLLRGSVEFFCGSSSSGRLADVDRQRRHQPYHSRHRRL
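Purified cruzain at 1.5 nM, pre-incubated 15 min with compound at room temperature in 100 mM sodium acetate pH 5.5, 5 mM DTT, 0.00005% Triton X-100. Reaction started with 2 uM Z-FR-AMC; AMC fluorescence increase over 60 s gives rate.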
NS1 inh: qHTS Assay for Inhibitors of Influenza NS1 Protein Function | S. cerevisiae slowed by influenza A NS1, growth recovery by OD600 | Potency, µM (titrated, usually from 46.1 µM), inactives show top-dose activity, positive = more growth | actives 0.4% (n = 270,000); note: actives are rising curves; nearly all actives have a fitted effect of over 50% in size
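Recovery from NS1-induced slow growth read by OD600 in budding yeast switched to galactose assay medium (pH 6.0, -URA) at 1:100 dilution. Compound 23 nl per well; the matching strain lacking NS1 serves as control.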
Lassa entry inh: qHTS for Inhibitors of binding or entry into cells for Lassa Virus; Lassa virus pseudotype entry inhibition, cell reporter; control for the full effect not named in the record; Potency, µM (doses to about 37.9 µM), inactives show top-dose activity change, negative = inhibition, usual class: inhibitors; actives 1.2% (n = 300,000); AID 540256, 2011; active means well fitted inhibition curve with a large enough effect; inconclusive means small, poorly fitted or top-dose-only effect, or effect the other way; inactive means flat fitted curve, though single readings scatter; tested in HEK293 cells; note: % is set by controls: 0 for no effect and ±100 for the full control effect; nearly all actives have a fitted effect of over 50% in size; luciferase read-out
SARS PLP yeast: qHTS of Yeast-based Assay for SARS-CoV PLP; actives 0.19% (n = 330,000); Potency, µM (doses to about 32.9 µM), inactives show at the highest dose activity, positive = growth rescue; S. cerevisiae expressing SARS-CoV PLpro, growth rescue; control for the full effect not named in the record; note: 0% is about no effect; nearly all actives have a fitted effect of over 55% in size; growth read by luminescence after 48 h
RE007 growth inh: qHTS Assay for Inhibitors of the HIV-1 protein Vpr; S. pombe RE007 Vpr strain, BacTiter-Glo ATP luminescence, 24 h; control for the full effect not named in the record; Potency, µM (series often up to 92.2 µM), inactives show at the highest dose activity change, negative = less growth; actives 0.21% (n = 360,000); active = well fitted falling curve with a large enough effect; inconclusive = small, poorly fitted or top-dose-only effect; inactive = no such curve, though single readings can be large or run the other way;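 note: % is set by controls: 0 for no effect and ±100 for the full control effect; nearly all actives have a fitted effect of over 50% in size; the assay follows cell death caused by Vpr and the record does not say whether a fall means rescue or toxicity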
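Fission yeast RE007 carrying one integrated HIV-1 vpr copy, seeded at OD 0.01 in PMG+AL medium with 23 nL pinned compound. Grown 24 h at 30 degrees; viability read by BacTiter-Glo luminescence after 5 min.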
MARV entry inh: qHTS for inhibitors of binding or entry into cells for Marburg Virus. Potency, µM (highest dose often 37.8 µM), inactives show at the highest dose activity change, negative = inhibition, most hits filed as inhibitors. Marburg virus pseudotyped entry inhibition, cell reporter; control for the full effect not named in the record; about a third of the inactives were read at about 46 µM. actives 1.8% (n = 300,000); active = well fitted inhibition curve with a large enough effect; inconclusive = small, poorly fitted or top-dose-only effect, or effect the other way; inactive = flat fitted curve, though single readings scatter; tested in HEK293 cells; about a fifth of its hits are not listed in these tables; note: % is set by controls: 0 for no effect and ±100 for the full control effect; luciferase read-out
Cruzain inh Det: qHTS Assay for Promiscuous and Specific Inhibitors of Cruzain (with detergent) | purified cruzain, Z-FR-AMC fluorescence, 0.01% Triton | Potency, µM, without a hit: max response, negative = inhibition, hits mostly inhibitors | actives 0.43% (n = 200,000) | AID 1478, 2009; active = well fitted curve in the direction sought with a large enough effect; inconclusive = small, poorly fitted or top-dose-only effect, or another doubt; inactive = no such curve, though single readings can be large; an effect the other way counts as inactive or inconclusive;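 note: plate controls were neutral wells for no effect and buffer without enzyme for full effect; nearly all actives have a fitted effect of over 40% in size; top concentration of the series not given in the record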
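15 min RT preincubation of 1.5 nM cruzain with compound, then 2 uM Z-FR-AMC added; kinetic AMC fluorescence, 60 s delta. Triton X-100 0.01%, pH 5.5.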
2A StopGo: High Throughput Screening for Foot and Mouth Disease Virus Antivirals | human cells with a luciferase reporter of 2A StopGo recoding; control for the full effect not named in the record | Potency, µM (doses to about 57.9 µM), inactives show top-dose signal change, negative = less light | actives 1.2% (n = 410,000) | AID 1159524, 2015; active = well fitted falling curve with a large enough effect; inconclusive = small, poorly fitted or top-dose-only effect; inactive = no such curve, though single readings can be large or run the other way; tested in HEK293T cells; note: % is set by controls: 0 for no effect and ±100 for the full control effect; nearly all actives have a fitted effect of over 45% in size; luciferase light after 4 h
* hit, by the source's call; ? = inconclusive; · = no result given; & = joins results of further samples; [ ] = another dose, or the depositor's remark. Unless noted, calls come from the whole dose curve; as a rule, active means well fitted rising curve with a large enough effect; inconclusive means small, poorly fitted or top-dose-only effect; inactive means no such curve, though single readings can be large or run the other way. Potency is the fitted concentration of half-maximal effect.

Start of the data: the first 2 records as a preview:
SMILES	Cruzain inh noDet	NS1 inh	Lassa entry inh	SARS PLP yeast	RE007 growth inh	MARV entry inh	Cruzain inh Det	2A StopGo
COc1ccccc1N1CCN(C2CCCN(C(=O)CCC(=O)N(C)C)C2)CC1 (stereo not drawn)	·	-3%	15%	-2%	3%	17%	·	7%
CCC(=O)N1CCc2cc(Br)cc(S(=O)(=O)NCCCN(CC)Cc3ccccc3)c21	·	-10%	-28%[46.1 µM]	-8%	2%	?	·	20%

The listing, previewed entries included:
SMILES	Cruzain inh noDet	NS1 inh	Lassa entry inh	SARS PLP yeast	RE007 growth inh	MARV entry inh	Cruzain inh Det	2A StopGo
COc1ccccc1N1CCN(C2CCCN(C(=O)CCC(=O)N(C)C)C2)CC1 (stereo not drawn)	·	-3%	15%	-2%	3%	17%	·	7%
CCC(=O)N1CCc2cc(Br)cc(S(=O)(=O)NCCCN(CC)Cc3ccccc3)c21	·	-10%	-28%[46.1 µM]	-8%	2%	?	·	20%
COC(=O)CCCCCCCCCC[N+]1(C)CCCCC1	1%	26%	1%	-19%	-1%	-20%	1.8%	?
Cc1cnc([N+](=O)[O-])n1CCOC(=O)NC(=O)c1ccccc1Cl	·	·	·	1%	-2%	11%[46.1 µM]	·	6%
CCOC(=O)[C@@H]1[C@H]2COc3ccccc3[C@H]2N2C(=O)N(c3ccc(Cl)cc3)C(=O)[C@]12C	·	-12%	·	-10%	1%	·	·	-25%
Cc1cc(OC(=O)N(C)C)nc(SCc2c(Cl)cccc2Cl)n1	·	-8%	·	-1%	9%	0%	·	-27%
CN=C1S/C(=C\c2cc(C)n(-c3ccccc3F)c2C)C(=O)N1C	9%	-34%	?	-33%	17%	?	-7.1%	-11%
CCOc1ncccc1C(=O)NCCc1c[nH]c2ccccc12	·	-4%	14%	0%	-3%	15%[46.1 µM]	·	3%
O=C(CNC(=O)C(c1ccccc1)c1ccccc1)OCc1ccccc1	·	-10%	22%	-2%	-2%	10%	·	-10%
COc1ccc(C(=O)CCC(=O)N2CCN(c3ccc(C)cc3)C(C)C2)cc1 (stereo not drawn)	·	-22%	·	-11%	-11%	·	·	-32%
COc1cc(/C=C(\CC(=O)O)c2nc3ccccc3s2)ccc1OCC(=O)Nc1ccccc1F	·	·	6%	·	38%	12%	·	9%
CC(=O)N1CCc2cc(S(=O)(=O)NC(C(=O)NC(C)c3ccccc3)C(C)C)ccc21 (stereo not drawn)	·	-8%	2%[46.1 µM]	?	-4%	-16%[46.1 µM]	·	-1%
CCOC(=O)N1C(=O)[C@](CC)(c2ccccc2)N1C(=O)OCC	·	-6%	·	3%	3%	·	·	-1%
CN(C)S(=O)(=O)N1CCC(Oc2cccc(C(=O)NCCC3=CCCCC3)c2)CC1	·	-9%	?	1%	1%	?	·	?
O=C(CCC(=O)c1cccs1)NC1CCCCCC1	·	1%	·	2%	19%	·	·	29%
CCS(=O)(=O)N1CCC(C(=O)NCCC(C)C)CC1	2%	·	-19%[46.1 µM]	·	·	·	0.9%	-4%
O=C(NCCc1nc2ccccc2[nH]1)c1ccc([N+](=O)[O-])cc1	·	4%	16%	0%	3%	2%[46.1 µM]	·	-13%
COc1ccc(CCNC(=O)c2ccc3c(c2)N(Cc2cccc(C)c2)C(=O)c2ccccc2S3(=O)=O)cc1OC	25%	·	?	·	·	?	0.7%	-3%
O=C(Nc1cccc2cccnc12)c1ccc(F)cc1	-14%	·	8%[46.1 µM]	·	·	·	-1.6%	28%
COc1cccc(NC(=O)/C(C#N)=C/c2c(C)n(Cc3ccc(Cl)cc3)c3ccccc23)c1	6.3µM*	·	-1%[46.1 µM]	·	·	·	-1.6%	-26%
CC(C(=O)NC1CCCC1)N(C(=O)CS(=O)CC(=O)Nc1ccc(F)cc1)c1ccc2c(c1)OCCO2 (stereo not drawn)	5%	-7%	-2%	3%	-9%	?	2.1%	·
CC(C)(CN1CCOCC1)NS(=O)(=O)c1ccccc1	·	7%	4%	3%	-6%	-1%	·	2%
CCNc1cc2c(cc1O)CCC1C2CCC2(C)C(O)CCC12 (stereo not drawn)	·	·	?	·	-8%	-5%	·	-11%
O=C(CCSc1ccccc1)NCCSc1ccccn1	-1%	-15%	-11%	3%	-24%	0%	-0.1%	1%
Cc1ccc2[nH]c(=O)c(CN(Cc3ccco3)C(=O)c3cccs3)cc2c1	2%	0%	·	-5%	·	·	-0.3%	·
CCOC(=O)c1ccccc1NC(=O)COC(=O)c1ccc(C)c(S(=O)(=O)N2CCOCC2)c1	?	3%	?	-3%	3%	?	-2.1%	-29%
CCOC(=O)c1ccc(Nc2ncccc2[N+](=O)[O-])cc1	·	0%	?	-1%	-22%	?	·	43%[activator]
O=C(NCC(c1ccco1)N1CCCCC1)c1cccc(S(=O)(=O)Nc2ccccc2Cl)c1 (stereo not drawn)	·	2%	?	3%	11%	-15%	·	-28%
CCOc1ncccc1C(=O)NCC1COc2ccccc2O1 (stereo not drawn)	12%	-90%	-3%	-2%	?	-23%	-1.8%	-18%
CCOC(=O)C1=C(COC(=O)C2(C)CC2(Cl)Cl)NC(=O)NC1c1ccc(OC)cc1 (stereo not drawn)	·	·	-1%	0%	1%	?	·	?
COc1cccc(C(=O)Nc2ccc3c(c2)CCCN3C(=O)c2cccs2)c1OC	2%	0%	?	-15%	0%	·	-6.0%	-15%&-12%
C/C(=N\n1cnnc1)c1ccccc1	·	·	1%[46.1 µM]	-1%	6%	-1%[46.1 µM]	·	7%
COc1cc(C(=O)NNC(=S)NC(=O)c2ccc3c(c2)OCO3)cc(OC)c1OC	·	-6%	?	1%	5%	?	·	0%
Cc1ccc(NNC(=O)C(=O)N2CCCCC2)cc1	-1%	-14%	16%	-36%	66%	5%	0.6%	-23%
COc1cc(C(=O)OCC(=O)NC(=O)NC2CCCCC2)cc(Cl)c1OC	·	·	11%	·	2%	3%	·	-5%
COc1ccccc1OCC(=O)NNC(=O)c1c(-c2ccccc2Cl)noc1C	·	·	-5%	-1%	0%	10%[46.1 µM]	·	-9%
Cc1cc(C)c(NC(=S)N(CCCN2CCOCC2)Cc2cccnc2)c(C)c1	·	·	-1%	2%	-10%	9%[46.1 µM]	·	3%
Cc1cc(C)c2sc(N(CCN(C)C)C(=O)c3c(F)cccc3F)nc2c1	·	·	-17%[46.1 µM]	-17%	10%	?	·	?
Cc1nn(Cc2ccccc2)c(C)c1/C=N/NC(=O)c1ccncc1	·	-2%	·	1%	-7%	·	·	?
CCOC(=O)c1ccc(NC(=O)c2cn(-c3ccccc3)nc2-c2ccncc2)cc1	6%	16%	-25%	-10%	-4%	7.1µM*	-7.6%	?
CC(C)NC(=O)CN1C(=O)CCn2nc(-c3cn(C)c4ccccc34)cc21	-5%	·	2%[46.1 µM]	·	·	·	-0.2%	-8%
CN(CC(=O)Nc1cc(S(=O)(=O)N2CCOCC2)ccc1Cl)C1CCS(=O)(=O)C1 (stereo not drawn)	·	3%	0%	3%	14%	7%[46.1 µM]	·	3%
CCc1c(C)c2cc(Cl)c(O)c(CN(C)C)c2oc1=O	?	11%	9%	-1%	-6%	6%	?	25%
COC(=O)C(NC(=O)c1ccco1)(Nc1nc(C)cs1)C(F)(F)F (stereo not drawn)	5%	-13%	5%	5%	-13%	3%	5.7%	-22%
Cc1cccc(NC(=O)CSc2ccc(-c3ccco3)nn2)c1C	-6%	15%	13%	9%	28%	12%	-5.3%	-1%
CC=Cc1cc(OC)c2c(c1)C(C)C(c1ccc(O)c(OC)c1)O2 (stereo not drawn)	·	·	-16%	·	-17%	-7%	·	0%
Cc1ccc(-n2c(=O)c3ccc(C(=O)NCc4ccco4)cc3n(CC(=O)Nc3ccc(C)c(F)c3)c2=O)cc1	-12%	·	?	·	·	-11%[46.1 µM]	-2.5%	20%
COc1ccc(NC(=O)Nc2cc(C)ccc2OC(F)F)c(OC)c1	-10%	-36%	13%	-1%	-6%	?	-6.3%	-7%
Cc1c(/C=C(\CC(=O)O)c2nc3ccccc3s2)cc(C#N)n1C	·	-3%	·	0%	-9%	·	·	-16%
CC(NS(=O)(=O)OCC(Cl)(Cl)Cl)c1ccc(C(C)(C)C)cc1 (stereo not drawn)	·	-108%	·	-17%	?	·	·	22µM*
CCOC(=O)N1CCN(C(=O)c2cccc(-n3c(=S)[nH]c4cc(Cl)ccc4c3=O)c2)CC1	-4%	2%	9%	6%	2%	0%&5%	-2.1%	22%
COc1ccc(-c2nc(SCc3ccc(C#N)cc3)[nH]c(=O)c2C#N)cc1	·	3%	·	2%	-7%	·	·	5%
O=C(CN1C(=O)C2(SCC(=O)N2c2ccc(F)cc2)c2ccccc21)NC1CCCCC1 (stereo not drawn)	12%	·	1%[46.1 µM]	·	·	·	-1.7%	-18%
O=C(N/N=C\c1cc(Cl)ccc1O)c1ccc(S(=O)(=O)N2CCCCC2)cc1	?	14%	?	?	-23%	?	2.8%	-22%
Cc1cccc(C(=O)c2c(N)sc3c2CCC(C)C3)c1 (stereo not drawn)	?	6%	11%	-30%	21%	1%	-12%	35%[activator]
COc1ccc(-c2cc(C)no2)cc1S(=O)(=O)N1CCN(C(=O)c2ccco2)CC1	·	-6%	·	5%	0%	·	·	-10%
COc1ccccc1C(=O)n1nc(-c2ccccc2)nc1NCc1ccco1	3%	-132%	42%[14.3 µM]	-34%	-8%	0%	4.9%	1%
Cc1cc(=O)[nH]c(SCc2cccc(F)c2)n1	-1%	-3%	3%	7%	-16%	4%[46.1 µM]	5.5%	-15%
COc1ccc(Cn2c(=O)sc3ccccc32)cc1	-3%	?	21%	-8%	-7%	16%	-2.4%	4%
CCCC(C(=O)NC1CCCC1)N(Cc1cccs1)C(=O)c1snc(C(N)=O)c1N (stereo not drawn)	-3%	-10%	-19%[14.3 µM]	6%	-21%	?	1.1%	-20%
